Screening results deposited in PubChem BioAssay by several laboratories.
ALR H2O2 inh: human ALR oxidase inhibition via reduced H2O2. 3.8% of 290,000 active. P55789. AID 485317. purified ALR, DTT oxidation, H2O2 HRP-luminol luminescence. inhibition, % (test concentration not listed);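 active = mean and each replicate at 75% or more; inconclusive = only one of the two met; inactive = neither met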;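 note: stock transfer was 7.5 nL into about 7.5 µL; 0% = neutral wells and 100% = wells with inactivated enzyme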
Target sequence (P55789 whole entry, looked up): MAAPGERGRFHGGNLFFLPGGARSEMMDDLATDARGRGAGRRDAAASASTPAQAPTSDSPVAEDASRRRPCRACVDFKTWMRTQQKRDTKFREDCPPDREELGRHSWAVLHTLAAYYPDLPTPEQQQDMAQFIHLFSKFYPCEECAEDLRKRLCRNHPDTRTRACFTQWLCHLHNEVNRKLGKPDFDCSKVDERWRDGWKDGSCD
Beta2AR agonist: activates human beta-2 adrenergic receptor causing internalization. response, % (no concentration beside the values). Am2.2-beta2AR cells, FAP receptor internalization, flow cytometry; reference of the scale not given here. P07550. 0.43% of 340,000 active;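 active = response above a set limit, near 3 SD of response in nonfluorescent compounds, cut at about 42% in these data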;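 note: stock transfer was 100 nL into about 11 µL; a reference agonist was the positive control; negative values mostly stem from fluorescent compounds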
Target sequence (P07550 whole entry, looked up): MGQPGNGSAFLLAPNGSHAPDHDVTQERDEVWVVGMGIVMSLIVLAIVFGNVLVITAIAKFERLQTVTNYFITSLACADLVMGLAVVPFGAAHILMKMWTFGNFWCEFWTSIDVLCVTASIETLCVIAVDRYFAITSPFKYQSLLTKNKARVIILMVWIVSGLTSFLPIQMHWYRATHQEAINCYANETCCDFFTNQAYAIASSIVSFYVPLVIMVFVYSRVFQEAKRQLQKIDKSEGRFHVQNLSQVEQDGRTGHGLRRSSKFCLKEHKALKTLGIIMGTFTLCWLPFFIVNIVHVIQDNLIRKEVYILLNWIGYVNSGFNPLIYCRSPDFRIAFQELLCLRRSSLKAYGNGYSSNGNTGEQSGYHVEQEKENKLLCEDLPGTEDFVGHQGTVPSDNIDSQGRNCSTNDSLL
Vif A3G: HIV-1 Vif–A3G interaction blockers – biochemical, TR-FRET, GST-Vif 1-94, biotin-A3G peptide, dose response retest, primary screen (AID 1117319); TR-FRET GST-Vif / biotin-A3G peptide binding; higher % means a stronger effect; test concentration not given here; strong numbers were not always called active; 0.57% of 260,000 active; inhibition, %, or IC50 in µM where a hit was titrated;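 active = above the screen mean plus three standard deviations and confirmed in dose response; inconclusive = results disagree or hit not tested in dose response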;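 note: Vif residues 1-94 fused to GST binding biotinylated APOBEC3G peptide 110-148; 0% = full assay without inhibitor and 100% = GST in place of GST-Vif; retest series ran down from 100 µM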
Calb FLC: affects C. albicans growth with fluconazole; C. albicans CaCi-2 (fluconazole-resistant clinical isolate) + fluconazole, Alamar Blue growth, 48 h; growth inhibition, % (test concentration not listed); 0.57% of 300,000 active; AID 1979;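 active = most replicates above 75%; inconclusive = exactly half above 75%; inactive = most below 75%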;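 note: all wells also contain fluconazole at 8 µg/ml as a sub-toxic cotreatment; 0% = median of DMSO wells and 100% = median of geldanamycin control wells; wells of about 8 µL received 7.5 nL stock; the first replicate is given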
LANA-H2A inh: blocks KSHV LANA binding to histone H2A/H2B. cell-free LANA-H2A/H2B peptide, fluorescence polarization. inhibition, % (test concentration not listed). 0.6% of 320,000 active. AID 2629; in the data active = inhibition mostly above about 10%, no sharp cut-off; inactive = mostly below about 6.7%;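 note: stock transfer was 7.5 nL into about 10 µL; 0% = median of vehicle wells and 100% = median of positive control wells; one replicate is shown; the record names a cut of 25% in any replicate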
RanGTP-Imp inh: disruptors of Ran-importin-beta complex formation – biochemical, FRET, CFP-Ran, YFP-importin-beta, homogeneous, primary screen. cell-free CFP-Ran/YFP-importin-beta FRET ratio. inhibition, % (no concentration beside the values). 1.1% of 300,000 active. AID 2216;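 active = most replicates above 15%; inconclusive = exactly half above 15%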;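 note: 0% = DMSO wells and 100% = Ran loaded with GDP instead of GTP; wells of about 40 µL received 100 nL stock; the first replicate is given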
HNF4A DNA FP: change in binding of human HNF4 alpha to DNA; HNF4a-FITC DNA binding, fluorescence polarization, 1 h; activity change, % at 10 µM; 0.3% of 360,000 active; P41235; in the data active = activity change above about 30%, passing the limit was not always enough;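 note: controls were the assay level and a saturating level of protein; the project sought stronger binding though the title names inhibitors; some compounds called inactive have numbers as strong as hits; positive values seem to mean higher polarization but the record does not say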
Target sequence (P41235 whole entry, looked up): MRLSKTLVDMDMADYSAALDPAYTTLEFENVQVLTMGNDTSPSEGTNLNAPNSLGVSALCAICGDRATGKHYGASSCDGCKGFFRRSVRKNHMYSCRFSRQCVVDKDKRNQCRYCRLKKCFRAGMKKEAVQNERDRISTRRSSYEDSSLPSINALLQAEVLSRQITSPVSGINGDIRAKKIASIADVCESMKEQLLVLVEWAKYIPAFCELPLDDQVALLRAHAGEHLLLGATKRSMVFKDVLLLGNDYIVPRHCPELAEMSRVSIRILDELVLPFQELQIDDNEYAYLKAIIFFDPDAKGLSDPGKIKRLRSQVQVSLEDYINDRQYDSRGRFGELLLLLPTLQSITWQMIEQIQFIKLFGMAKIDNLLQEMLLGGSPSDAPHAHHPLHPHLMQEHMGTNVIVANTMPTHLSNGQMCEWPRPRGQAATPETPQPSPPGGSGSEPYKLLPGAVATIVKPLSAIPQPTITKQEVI
The depositor's hits bear a star; ? = inconclusive; . = no result given. Random draw from the library (roughly 6.3% active in at least one column).

SMILES	ALR H2O2 inh	Beta2AR agonist	Vif A3G	Calb FLC	LANA-H2A inh	RanGTP-Imp inh	HNF4A DNA FP
Cc1sc2nc(CN3CCCC3)nc(N3CCC(C(N)=O)CC3)c2c1C	-14	5	0%	6	-6.0	13	2.7
Cc1cccc(S(=O)(=O)Nc2ccc(C)c3c2OC(C)(C)C3)c1	10	-8	16%	.	0.5	-1.8	-0.4
Cn1c(=O)c2c(SCC(=O)NCc3ccco3)nc(CC(C)(C)C)nc2n(C)c1=O	20	-14	6%	-14	-2.7	3.8	-1.0
O=C(CN(Cc1cccs1)C(=O)CCC(=O)Nc1nccs1)NCc1ccccc1	1	-1	16%	3	-5.2	0.3	-2.6
Cc1ccc(NC(=O)CSc2nnc(CCC(=O)O)c(=O)[nH]2)cc1	98*	-7	2%	-4	3.3	4.5	1.5
O=C(CSc1nc2ccccc2s1)Nc1ccc(C(=O)O)cc1	-2	2	.	37	-3.3	-5.0	-3.6
O=C(COc1ccccc1O)c1cccs1	69	-2	0%	6	3.1	1.2	2.8
Cn1c(N)c(C(=O)CSc2nnc(C3CC3)n2-c2ccccc2)c(=O)n(C)c1=O	.	8	-2%	.	1.6	.	0.7
CCCCNc1oc(-c2cccs2)nc1S(=O)(=O)c1ccccc1	4	-10	-1%	-2	-4.9	-3.0	1.1
CC1=CC(=O)C=C(C)C1=NOS(=O)(=O)c1ccccc1	.	33	10%	5	.	1.8	-1.9
CN(CC(=O)Nc1ccccc1C(F)(F)F)C(=O)CSc1nc(N)cc(N)n1	-1	-6	-9%	.	3.6	.	-2.5
CCOC(=O)C1CCN(C(=O)c2ccccc2N(C)S(=O)(=O)c2ccccc2)CC1	-5	9	-8%	-2	4.8	-2.0	-1.3
Cc1ncc(CN2CCCCC2C(=O)Nc2ccc(Oc3ccccc3)nc2)cn1 (stereo not given)	1	-6	.	1	-3.7	1.7	0.3
CCN(CC)S(=O)(=O)c1ccc(C)c(NC(=O)c2cc(C)oc2C)c1	.	1	-7%	-28	-2.5	-1.9	-1.7
CC(C)COC(=O)CNc1n[nH]c(=S)[nH]c1=O	5	-8	-27%	1	-3.9	2.2	1.4
CCC(c1nnnn1CS(=O)(=O)c1ccc(C)cc1)N1CCN(c2nc3ccccc3s2)CC1 (stereo not given)	-4	2	0%	3	-6.3	3.7	-0.2
CC1=C(C(=O)OCCOc2ccccc2)C(c2ccsc2)NC(=O)N1C (stereo not given)	-12	-3	0%	7	1.4	-1.3	-1.9
CN(C)C(=O)CCc1ccc2c3c([nH]c2c1)[C@]1(C)[C@@H](C(=O)N2CCOCC2)C[C@H](CC(=O)NCCc2ccccn2)C(=O)N1CC3	.	-5	0%	.	.	.	-2.1
Clc1ccc(CN=C(Nc2ccccc2)NC2CCCCC2)cc1	-4	19	3%	-35	3.6	-0.4	1.8
O=C(CN1CCCc2ccccc21)NCCc1ccc(Cl)cc1	4	7	32%	0	1.2	-3.0	-0.7
COC(CNc1cc(=O)oc2ccccc12)OC	5	6	6%	.	1.0	2.5	-1.0
CCOc1ccc(/C=N/Nc2nc(C)cs2)c(O)c1	5	-7	.	-5	-1.7	1.3	2.2
CC(C)C(NC(=O)/C=C/c1ccc(F)cc1)C(C)C	-3	5	-3%	-1	0.8	3.9	3.7
Cc1ccc(CCNC(=O)CCn2c(=O)c3cccn3c3ccc(F)cc32)cc1	24	-11	-5%	19	5.4	-0.3	-2.3

Gathered by group, the entries above with an NH in an aromatic ring.
SMILES	ALR H2O2 inh	Beta2AR agonist	Vif A3G	Calb FLC	LANA-H2A inh	RanGTP-Imp inh	HNF4A DNA FP
Cc1ccc(NC(=O)CSc2nnc(CCC(=O)O)c(=O)[nH]2)cc1	98*	-7	2%	-4	3.3	4.5	1.5
CC(C)COC(=O)CNc1n[nH]c(=S)[nH]c1=O	5	-8	-27%	1	-3.9	2.2	1.4
CN(C)C(=O)CCc1ccc2c3c([nH]c2c1)[C@]1(C)[C@@H](C(=O)N2CCOCC2)C[C@H](CC(=O)NCCc2ccccn2)C(=O)N1CC3	.	-5	0%	.	.	.	-2.1

Remaining list, next part
SMILES	ALR H2O2 inh	Beta2AR agonist	Vif A3G	Calb FLC	LANA-H2A inh	RanGTP-Imp inh	HNF4A DNA FP
CCCc1cnc(N2CCN(C(=O)c3c(-c4ccccc4)noc3C)CC2)nc1	2	1	-1%	21	4.7	-0.8	0.8
Cc1ccc(C)c(NC(=O)c2cc(-c3cc(C)cc(C)c3O)n[nH]2)c1	.	10	-1%	-9	-0.8	-2.2	1.0
CCc1ccc(NC(=O)CSc2nnc(-c3ccccn3)n2C)cc1	-11	-2	0%	-11	-0.5	0.0	-16
C=CCn1c(SCCCCCC)nc(O)cc1=O	4	0	0%	-14	0.8	2.7	-0.5
CCOc1ccc(NC(=O)c2ccc(C#CC(C)(C)O)cc2)cc1	-1	-2	20%	25	-2.5	-0.7	0.8
O=c1c(Cc2ccccc2)c(O)nc2n1CCCS2	9	-3	5%	18	-3.1	3.1	-1.5
O=C(NN1CCN(Cc2ccccc2Cl)CC1)c1ccc(Br)cc1	7	-1	9%	-5	-1.5	3.7	-0.3
COc1ccc(CC(=O)NCCc2ccc(OC)c(OC)c2)cc1	-29	-16	.	0	-0.2	-1.3	-4.3
CC(C)c1cc(C(=O)N2CCN(C(c3ccccc3)c3ccccc3)CC2)no1	.	11	0%	13	2.0	5.6	1.0
O=[N+]([O-])c1cccc(N/N=C/c2ccc(N3CCOCC3)cc2)c1	0	11	.	-5	-2.8	3.0	3.2
CCOc1ccc(N(CC(=O)Nc2ccc3c(c2)OCCO3)S(=O)(=O)c2c(C)noc2C)cc1	-43	7	8%	8	1.8	?	0.9
CCOC(=O)c1c(S(=O)(=O)N2CCCCCC2)c(C)n(C)c1C	4	-6	.	2	-6.0	6.8	-4.1
COc1cc(C(=O)O[C@H]2C/C(C)=C/CC[C@@]3(C)O[C@@H]3[C@H](O)[C@@H]2C(C)C)cc(OC)c1OC	-42	-1	-4%	9	1.2	0.4	1.4
COc1ccc(OC)c(-c2nc(CN(C)C(C)c3ccncn3)c(C)o2)c1 (stereo not given)	-13	-9	.	6	-1.7	0.4	4.1
CC(C)(C)C1CCc2[nH]nc(C(=O)O)c2C1 (stereo not given)	-3	-4	29%	.	-6.4	.	1.2
CCc1nc2nc(C)c(NS(=O)(=O)c3ccc(C)c(C)c3)c(=O)n2[nH]1	11	6	.	-3	1.0	0.8	-0.8
Cc1nc2sc3c(c2c(=O)[nH]1)CCC3	-2	-3	-5%	4	1.3	0.1	-0.9
CN1CCC(N(C)C(=O)c2cc(-c3ccccc3Cl)nc3ccccc23)CC1	3	0	2%	.	.	.	-2.9
Cc1cc(C)c2oc(C(=O)N(Cc3cccs3)C3CCS(=O)(=O)C3)cc(=O)c2c1 (stereo not given)	-9	-12	7%	4	2.7	0.2	0.4
COc1ccc(C(=O)CSc2nnc(CC(=O)Nc3ccccc3OC)n2C)cc1	.	-10	1%	-19	-0.3	?	5.5
COc1ccc(N2CCN(C(c3cc(OC)ccc3OC)c3nnnn3Cc3ccco3)CC2)cc1 (stereo not given)	0	-17	1%	-7	0.8	-4.0	-3.6
O=C(CSc1ccc2nnc(-c3ccc(F)cc3)n2n1)NCC1CCCO1 (stereo not given)	-4	2	-2%	-12	-6.9	6.4	-1.4
CC(C)(C)c1ccc(OCC(=O)N2CCN(c3ncccn3)CC2)cc1	-15	-2	7%	2	5.6	-2.9	2.3
CCCCC(=O)Nc1ccc2c(c1)nc(CCN1CCN(C)CC1)n2C	-8	-11	-6%	-4	-2.2	5.7	-0.1
CCn1c(SCC(=O)NC2=NCCS2)nnc1C(C)NC(=O)c1ccccc1Br (stereo not given)	-5	-5	.	15	0.6	0.6	1.5
Cc1nc2ccc(NC(=O)C3CCCCC3)cc2s1	.	13	1%	.	-0.2	.	0.5
COc1ccc(C(=O)/C=C/Nc2ccc(S(=O)(=O)Nc3cc(OC)nc(OC)n3)cc2)c(OC)c1	.	10	.	-1	17*	9.4	11
O=C(CCCSCCCC(=O)NN=Cc1ccccc1)NN=Cc1ccccc1	.	-23	-8%	.	.	.	-0.4
Cc1ccccc1C(=O)NNC(=O)C(=O)Nc1cccc(Cl)c1C	-1	0	-1%	25	1.0	?	0.6
COC(=O)c1ccc(OC(=O)C23CCC(C)(C(=O)O2)C3(C)C)cc1 (stereo not given)	4	-5	5%	5	4.8	-0.9	2.5
Cc1ccc(C(C(=O)NC2CCCCC2)N(Cc2ccco2)C(=O)C2COc3ccccc3O2)o1 (stereo not given)	-1	15	-8%	5	1.1	-0.5	-1.7
O=C(NNC(=S)NC1CCCCC1)c1cccc(S(=O)(=O)Nc2ccccc2Cl)c1	7	6	3%	20	6.0	1.7	0.3
O=C(CCNC(=O)c1ccccc1Cl)Nc1cc(S(=O)(=O)N2CCOCC2)ccc1N1CCOCC1	0	-15	.	-5	2.0	6.2	-0.1
COc1ccccc1OC1=NS(=O)(=O)c2ccccc21	6	3	2%	-1	1.7	1.9	-0.4
Cc1c(CCO)c(=O)[nH]n1S(=O)(=O)c1ccccc1	-1	2	-7%	-25	0.4	4.4	3.9
Cc1ccc(CNC(=O)C2CC(=O)OC23CCCC3)c(C)c1 (stereo not given)	-2	13	27%	?	0.0	-3.4	-5.7
O=C(O)c1nc(Cl)c(Cl)c(N/N=C/c2ccccc2C(F)(F)F)c1Cl	19	-4	.	3	-3.0	3.7	-3.2
CCOC(=O)c1ccc(S(=O)(=O)NNC(=O)c2cccc(N(C)C)c2)cc1	82*	-6	?	7	-0.9	-3.6	4.0
Cc1ccc(S(=O)(=O)Nc2ccc(-c3csc(-c4ccccc4)n3)cc2)cc1	-3	9	-17%	-9	-0.1	4.0	1.3
COc1ccccc1C(=O)NNC1CC(=O)N(c2ccc3c(c2)OCCO3)C1=O (stereo not given)	52	-4	.	-3	-1.8	-0.7	0.5
COc1cccc(/C=C/C(=O)OCC(=O)Nc2ccc(S(=O)(=O)N3CCCC3)cc2)c1	3	2	-5%	1	-4.8	-3.5	-2.7
O=C(Oc1ccc2c3c(c(=O)oc2c1)CCCC3)c1cccs1	3	1	.	15	-2.8	3.5	3.6
COC(=O)c1cc(C)ccc1/C=C1/Cc2c(C)cc(C)cc2C1=O	.	-9	-4%	.	.	.	-2.2
CCC1=Nc2cc(C(=O)NCCN3CCCC3)ccc2Sc2ccccc21	-6	6	.	4	4.1	0.0	0.3
O=C(Oc1cccc(Oc2ccccc2)c1)N1CCOCC1	-12	-13	0%	-19	2.3	2.2	-0.8
COC(=O)/C=C1/SC(=NC(=O)c2ccc(OC)cc2)NC1=O	4	11	.	26	-0.6	2.2	0.7
COc1ccc(S(=O)(=O)N(C)CC(=O)NCCCn2ccnc2)cc1Cl	0	4	.	15	-0.3	-0.3	2.4
C[C@H]1[C@H](C)CC[C@]2(C(=O)O)CC[C@]3(C)C(=CC[C@@H]4[C@@]5(C)C[C@@H](O)[C@H](O)C(C)(C)[C@@H]5CC[C@]43C)[C@H]12	-6	31	1%	0	-0.9	2.2	0.5
O=C(Nc1ccc(Nc2ccccc2)cc1)c1ccc(Cl)c([N+](=O)[O-])c1	10	33	.	12	0.9	5.9	-2.4
CCOc1ccccc1C(=O)N/N=C/c1cccc2cccnc12	.	-4	2%	2	0.0	-2.3	-1.1
CC(C)N(C(=O)CN1C(=O)NC(c2ccccc2)(c2ccccc2)C1=O)C(C)C	.	-1	.	5	2.7	6.7	-5.2
CC(C)N(CC#CCC(O)(c1ccccc1)C1CCCC1)CCO (stereo not given)	0	-3	.	-22	0.7	0.0	1.3
CCn1nc(C(=O)OCC(=O)NC(C)C)c2ccccc2c1=O	-23	2	.	-14	-1.7	-3.1	-2.1
O=C(CNC(=O)c1cccs1)Nc1ccc(N2CCOCC2)cc1	50	0	-3%	.	6.6	.	0.8
Cc1ccc(-c2nc(N)sc2-c2ccc(C)cc2)cc1	.	7	4%	27	.	-1.4	-1.2
